Menin-MLL FL inh: qHTS Assay for Inhibitors Targeting the Menin-MLL Interaction in MLL Related Leukemias: Competition With Fluorescein Labeled MLL-derived Peptide | Fluorescence polarization, fluorescein-MLL peptide displacement from menin | FP activity change, % at 61.4 µM | 290,000 tested, under 10 active; inconclusive = falling polarisation curve, or a change in total fluorescence; inactive = total fluorescence flat and polarisation flat or rising; no compound was filed as active; the % refers to the polarisation; negative = inhibition;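 further: % of control where 0% means no effect; inhibitors lower the polarisation; unlabelled MLL peptide was the positive control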
TRPV1 PAM: HTS Assay for Compounds that Act as Potentiators of the Vanilloid Receptor 1. 320,000 compounds, 0.02% hits. TRPV1-expressing cells, Fluo-8 calcium influx, capsaicin EC20 potentiation; host cell line not named in the record; control for the full effect not named in the record. Transient receptor potential cation channel subfamily V member 1 (Homo sapiens), Q8NER1. potentiation, % at 8.33 µM; active means potentiation above 80%; inconclusive means 30% to 80%; inactive means below 30%; further: 0% is about no effect
Target sequence (Q8NER1 whole entry, looked up): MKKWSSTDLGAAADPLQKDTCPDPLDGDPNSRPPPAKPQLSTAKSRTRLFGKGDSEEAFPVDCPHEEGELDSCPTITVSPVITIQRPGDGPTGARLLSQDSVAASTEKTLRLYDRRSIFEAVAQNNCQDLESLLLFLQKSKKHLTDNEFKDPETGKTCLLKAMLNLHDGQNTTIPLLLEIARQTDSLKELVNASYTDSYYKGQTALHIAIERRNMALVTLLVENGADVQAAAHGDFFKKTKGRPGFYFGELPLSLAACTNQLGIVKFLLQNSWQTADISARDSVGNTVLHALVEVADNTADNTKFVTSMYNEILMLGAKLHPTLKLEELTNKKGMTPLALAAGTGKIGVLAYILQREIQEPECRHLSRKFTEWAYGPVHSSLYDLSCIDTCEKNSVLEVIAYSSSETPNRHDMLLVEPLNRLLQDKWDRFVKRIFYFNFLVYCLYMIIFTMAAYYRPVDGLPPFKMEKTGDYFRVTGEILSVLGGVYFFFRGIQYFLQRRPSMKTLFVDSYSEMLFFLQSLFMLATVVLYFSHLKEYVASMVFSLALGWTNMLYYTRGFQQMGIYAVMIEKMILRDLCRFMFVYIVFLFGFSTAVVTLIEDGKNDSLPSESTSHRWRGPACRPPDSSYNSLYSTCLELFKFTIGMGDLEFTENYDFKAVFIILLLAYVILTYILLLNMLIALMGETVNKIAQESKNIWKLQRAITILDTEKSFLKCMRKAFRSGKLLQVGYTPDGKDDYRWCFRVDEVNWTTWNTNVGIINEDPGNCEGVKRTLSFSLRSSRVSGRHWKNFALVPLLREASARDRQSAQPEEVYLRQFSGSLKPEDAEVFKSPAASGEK
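Cells expressing TRPV1 were dye-loaded with Fluo-8 and read kinetically: 10 s baseline, 3 min after compound (agonist portion), then 2 min after EC20 capsaicin (allosteric enhancer portion). Calcium-bound dye fluorescence at 480/520 nm.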
gsp antagonist: qHTS for Antagonists of gsp, the Etiologic Mutation Responsible for Fibrous Dysplasia/McCune-Albright Syndrome: qHTS; AID 624288, 2012; 340,000 compounds, 0.4% hits; Potency, µM (doses to about 76.9 µM), without a hit: at the top dose activity change, negative = inhibition, actives largely listed as inhibitors; gsp-mutant cells, cAMP HTRF, 30 min; control for the full effect not named in the record; active = falling curve of any shape with a large fitted effect; inconclusive = falling curve, mostly with a smaller effect; inactive = flat or rising curve; cell line not stated here;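 further: intracellular cAMP measured with PDE inhibitor Ro 20-1724 present during compound exposure; potency means the concentration at half of the fitted maximal effect; on the % scale 0 is the no-effect control and ±100 the full control effect; nearly all actives have a fitted effect of over 65% in size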
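HTRF cAMP read-out (cAMP-d2 plus anti-cAMP antibody-K in lysis buffer, 30 min RT). Before lysis, cells are exposed to compounds with […] for 30 min at 37C in DPBS containing Ca/Mg, BSA and Tween 20.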
gsp agonist: qHTS for Agonist of gsp, the Etiologic Mutation Responsible for Fibrous Dysplasia/McCune-Albright Syndrome: qHTS. AID 624287, 2012. gsp mutant cells, cAMP HTRF, 30 min; control for the full effect not named in the record. 340,000 compounds, 0.13% hits. Potency, µM (top dose mostly 76.9 µM), inactives show at the top dose activation (cAMP increase), hits mostly activators; active = well fitted activation curve with a large enough effect; inconclusive = small, poorly fitted or top-dose-only effect, or another doubt; inactive = no such curve, though single readings can be large or run the other way; cell line not stated here;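 further: phosphodiesterase inhibitor Ro 20-1724 added with compounds to block cAMP breakdown; potency means the concentration at half of the fitted maximal effect; nearly all actives have a fitted effect of over 60% in size; about a fifth of the inactives were tested at one dose only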
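Cells stably selected in G418 were plated at 2000/well, grown 16-24 hr, then given compounds in DMSO with the PDE inhibitor […] (300 uM solution added) for 30 min at 37C; cAMP was read by HTRF.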
D2 PAM: Beta-Arrestin HTS for Positive Allosteric Modulators of the Human D2 Dopamine Receptor: Potentiators; D(2) dopamine receptor (Homo sapiens), P14416; DiscoveRx D2 beta-arrestin cells, luminescence, 90 min; 100% = 57 uM dopamine signal; potentiation, % (concentration not given with the values); 360,000 compounds, 0.23% hits; AID 624464, 2012; active = potentiation of 50% or more; inconclusive = 30% to 50%; inactive = 30% or less;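 further: tested on top of an EC20 dose of dopamine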
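PathHunter beta-arrestin assay in DiscoveRx D2 cells. Compounds were added with an EC20 of dopamine (50 nM final) for 90 min at 37 deg C. Luminescence was read 1 h after detection reagent, with 57 uM dopamine as the EC100 control.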
Sfp PPTase inh: qHTS Assay for Inhibitors of Bacillus subtilis Sfp phosphopantetheinyl transferase (PPTase); 4'-phosphopantetheinyl transferase ffp (Bacillus subtilis), Q9F4F7; Potency, µM, inactives show max response, negative = inhibition, hits mostly inhibitors; 310,000 compounds, 3.5% hits; Biochemical Sfp PPTase activity, qHTS; active means well fitted inhibition curve with a large enough effect; inconclusive means small, poorly fitted or top-dose-only effect, or another doubt; inactive means no such curve, though single readings can be large or run the other way;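 further: the enzyme is Sfp with the accession as filed and its product quenches rhodamine fluorescence; potency means the concentration at half of the fitted maximal effect; 0% = enzyme reaction without inhibitor and -100% = no enzyme wells; top concentration of the series not given in the record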
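After 15 min at room temperature with compound, 15 nM Sfp received 5 uM rhodamine-CoA plus 12.5 uM BHQ-2-ybbR (50 mM Hepes pH 7.6, 10 mM MgCl2). Rate came from the fluorescence difference over 30 min, ex 525/em 598 nm.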
ClpP mod: qHTS Assay for Activators of ClpP | purified B. subtilis ClpP, FRET peptide cleavage, 20 min | Potency, µM (doses to about 57.5 µM), inactives show at the highest dose activity change, negative = active | 340,000 compounds, 1.9% hits | ATP-dependent Clp protease proteolytic subunit (Bacillus subtilis (strain 168)), P80244 | AID 651965, 2013; active = well fitted falling curve with a large enough effect; inconclusive = small, poorly fitted or top-dose-only effect; inactive = no such curve, though single readings can be large or run the other way; further: potency means the concentration at half of the fitted maximal effect; the source files actives as falling curves though it sought activators and does not explain the sign; nearly all actives have a fitted effect of over 65% in size; many hits overshoot -100%
Target sequence (P80244 whole entry, looked up): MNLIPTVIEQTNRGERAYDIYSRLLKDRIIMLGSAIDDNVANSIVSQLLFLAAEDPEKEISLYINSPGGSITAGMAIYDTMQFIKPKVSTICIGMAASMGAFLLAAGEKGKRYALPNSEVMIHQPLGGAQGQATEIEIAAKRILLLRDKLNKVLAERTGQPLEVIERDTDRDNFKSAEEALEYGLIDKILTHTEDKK
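ClpP 10 microg/mL final, pH 8 Tris/KCl buffer with BSA, glycerol, Tween-20; compound pinned in; FRET-FV substrate; RT 20 min; Ex320/Em430; ΔFRET vs ADEP 5.8 microM, DMSO, no enzyme.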
An asterisk follows results filed as active; ? = inconclusive; . = no result given; [ ] = remark or other dose.

no.	canonical_smiles	Menin-MLL FL inh	TRPV1 PAM	gsp antagonist	gsp agonist	D2 PAM	Sfp PPTase inh	ClpP mod
1	CC(C)=CC(=O)Nc1ccc(S(=O)(=O)Nc2ccccn2)cc1	-0.8	-48.5	1.3%	?	-5.0	11.5%	-7.7%
2	Cc1cccc(C(=O)NCC(=O)N2CCC2)c1	.	-7.7	6.7%	-41.4%[inhibitor]	-3.2	.	-0.2%
3	O=C(OCC#CCSc1nnc(-c2ccccc2)o1)c1cc2ccccc2o1	1.3	0.0	5.8%	-15.3%	-14.2	4.5%	-5.5%
4	CN1CCN(CCC(=O)Nc2ccc(C3CCCC3)cc2)CC1	2.9	6.3	15.6%	-82.1%[inhibitor]	-9.4	6.8%	1.5%
5	Cc1sc(C(=O)Nc2ccc3ccccc3c2)cc1CC(=O)O	-2.3	-9.1	-15.5%	13.0%[15.4 µM]	-5.7	15.8%	.
6	Cc1ccc(C)c(NC(=S)NCC(c2cccnc2)N2CCOCC2)c1 (stereo unspecified)	1.0	-18.0	6.6%	-28.2%	-2.6	8.0%	0.3%
7	Cc1ccc([C@@H]2C[C@H]3[C@@H](CN2S(=O)(=O)c2ccc(C)cc2)C(=O)C[C@@H](c2ccc(Cl)cc2)N3S(=O)(=O)c2ccc(C)cc2)cc1	.	.	.	?	0.7	.	-2.2%
8	Cc1ccccc1NC(=O)CC1S/C(=N/c2nccs2)N(C)C1=O (stereo unspecified)	2.9	-0.6	7.3%	-5.4%	-30.1	-1.9%	0.7%
9	CCN(CC)S(=O)(=O)c1cc(NC(=O)Cc2ccc(S(=O)(=O)N3CCOCC3)s2)ccc1Cl	.	.	?	10.0%	-4.2	.	1.7%
10	C[C@H](CO)N1C[C@H](C)[C@@H](CN(C)S(=O)(=O)c2ccccc2)Oc2ccc(NS(=O)(=O)c3ccc(F)cc3)cc2C1=O	.	.	-18.3%	.	-5.1	.	0.4%

Carrying on.
no.	canonical_smiles	Menin-MLL FL inh	TRPV1 PAM	gsp antagonist	gsp agonist	D2 PAM	Sfp PPTase inh	ClpP mod
11	CC1CC(C)(C)N(C(=O)CN2C(=O)c3ccccc3C2=O)c2ccccc21 (stereo unspecified)	-1.2	-9.4	-30.9%	-36.0%[inhibitor]	-15.8	-4.0%	1.3%
12	CC(CCc1ccccc1)NC(=O)c1ccc(NC(=O)c2cccc(Br)c2)cc1 (stereo unspecified)	1.4	13.5	-17.0%	19.1%	-7.4	25.1%	-8.6%
13	CCOc1ccc(/C=C/c2[nH]c(=O)[nH]c(=O)c2[N+](=O)[O-])cc1	-0.5	1.5	3.1%	-18.3%[15.4 µM]	-5.6	17.3%	-6.6%
14	O=C1CNC(=O)/C(=C/c2ccco2)N1	-2.9	-2.6	.	-33.4%[15.4 µM]	-12.5	1.2%	.
15	O=C1NCC(Nc2ccc(Br)cc2)C(=O)N1 (stereo unspecified)	.	.	16.8%	2.0%	-1.4	.	.
16	C=CCNC(=O)c1cccc(Br)c1	1.1	1.1	9.6%	?	7.5	12.5%	-0.5%
17	O=C(CSc1nnc(-c2ccccc2)c(-c2ccccc2)n1)N1CCc2ccccc21	0.4	10.3	-6.1%	-1.1%	-4.4	-18.9%	-1.4%
18	O=C(COc1ccc(S(=O)(=O)N2CCCC2)cc1Cl)Nc1ccc2c(c1)OCO2	2.3	-3.1	13.8%	18.5%	1.8	-15.7%	0.6%
19	N=c1ccn(Cc2ccc(Cl)cc2Cl)cc1	2.5	-3.5	12.3%	22.0%	-5.5	-4.7%	0.5%
20	CC(=NNc1ccc([N+](=O)[O-])cn1)c1ccc(N)cc1	.	.	-15.8%	-10.8%	-24.2	.	-2.8%

The list goes on:
no.	canonical_smiles	Menin-MLL FL inh	TRPV1 PAM	gsp antagonist	gsp agonist	D2 PAM	Sfp PPTase inh	ClpP mod
21	O=C(N/N=C/C=C/c1ccco1)c1cnccn1	-1.5	15.5	-15.8%	16.0%[15.4 µM]	-11.4	10µM*	.
22	COc1ccc(C)c(-n2c(=O)n(Cc3ccccc3)c(=O)c3[nH]cnc32)c1	-6.4	1.6	11.0%	-14.8%	-48.4	-5.5%	0.4%
23	Cc1nc(-c2ccc(S(=O)(=O)NCc3cccnc3)s2)cs1	14.0	11.6	-18.1%	-0.7%	-20.1	-19.1%	4.0%
24	O=C(CC1CCCCC1)N1CCC(c2nc(-c3ccc(S(=O)(=O)N4CCCC4)cc3)no2)CC1	5.4	2.0	-13.2%	-0.4%	-2.7	13.8%	-3.7%
25	O=C(c1ccccc1Sc1ccc([N+](=O)[O-])cc1)N1CCCCC1	2.2	-22.9	-2.6%	3.3%	-6.7	-14.3%	-0.9%
26	Cc1ccc(-c2cc(C(=O)Nc3sc4c(c3C(=O)NCc3ccco3)CCC4)[nH]n2)c(O)c1	3.7	8.5	0.9%	?	2.1	-1.1%	?
27	Cc1cc(=O)[nH]c(SCc2ccc(Cl)cc2)n1	.	.	6.1%	-11.1%[15.4 µM]	10.6	.	0.4%
28	C#CCOCCOCCOCCNc1nc(N2CCN(C(=O)[C@H]([C@@H](C)CC)n3cc([C@@H](N)CC(C)C)nn3)CC2)nc(N2CCN(C(=O)[C@H](Cc3cc4ccccc4[nH]3)n3cc([C@@H](N)C(C)CC)nn3)CC2)n1 (stereo partly specified)	1.1	-30.9	.	.	.	-22.6%	.
29	CC(c1ccco1)N(C(=O)c1ccccc1NS(=O)(=O)c1cccc([N+](=O)[O-])c1)c1ccccn1 (stereo unspecified)	1.1	-5.3	-18.6%	-21.8%	1.7	?	.
30	CCOC(=O)N1CCC(NC(=O)c2ccc3c(c2)N=C(CC)c2ccccc2S3)CC1	-3.9	-8.6	-16.8%	-10.4%	-5.6	17.8%	3.4%

(listing goes on)
no.	canonical_smiles	Menin-MLL FL inh	TRPV1 PAM	gsp antagonist	gsp agonist	D2 PAM	Sfp PPTase inh	ClpP mod
31	Cc1cc(NO)nc(-c2ccc(Br)cc2)n1	3.4	-10.9	1.7%	-0.7%	26.5	?	-0.6%
32	CC1CC(C)CN(CC(=O)c2cccs2)C1 (stereo unspecified)	3.6	-15.2	-0.7%	-2.0%[15.4 µM]	-35.9	7.2%	0.5%
33	C=C(C)CNC(=S)Nc1sc2c(c1C(=O)OCC)CC(C)(C)OC2	4.7	6.2	-11.1%	19.6%	-31.4	39.8µM*	0.5%
34	S=C(NCc1cccnc1)Nc1ccc(Cl)cc1	4.7	-9.6	-0.1%	-9.8%	-33.6	11.9%	-1.1%
35	CCCCc1nc(SCC(=O)Nc2nnc(C(C)C)s2)n[nH]1	.	-2.9	1.4%	2.4%[15.4 µM]	-6.2	2.6%	0.6%
36	CC(C)(Oc1ccc(Cl)cc1)C(=O)NCCCn1ccnc1	2.1	-22.5	5.4%	-44.3%[inhibitor]	-7.7	7.5%	-0.7%
37	COc1cc2cc(C(=O)N3CCN(c4ccccc4OC)CC3)[nH]c2cc1OC	12.7	7.8	0.7%	29.8%	0.0	4.3%	.
38	O=C(O)c1ccc(NS(=O)(=O)c2cccc(S(=O)(=O)c3ccc(Cl)c(Cl)c3)c2)cc1	-1.4	14.9	4.1%	3.9%[15.4 µM]	-10.1	3.9%	.
39	O=C(/C=C/c1ccccc1)CCN1CCCCC1	.	.	17.6%	-2.0%	-18.1	.	.
40	O=C(CCc1ccccc1)N1CCN(c2ccc([N+](=O)[O-])cc2)CC1	-2.3	-25.9	-30.0%	-16.4%	-11.5	-11.1%	3.3%

The listing continues:
no.	canonical_smiles	Menin-MLL FL inh	TRPV1 PAM	gsp antagonist	gsp agonist	D2 PAM	Sfp PPTase inh	ClpP mod
41	COc1cc(C(=O)Nc2cc(C)ccc2C)ccc1OCc1c(C)noc1C	.	.	2.0%	4.3%	-2.9	.	.
42	Cc1ccc2[nH]c(=O)c3cc(C(=O)N(C)C4CCCCC4)sc3c2c1	8.7	-10.6	7.5%	-51.1%[inhibitor]	-9.4	18.6%	-27.5%
43	COc1ccccc1NS(=O)(=O)c1cccc(-n2c(O)c(C=Nc3ccccc3C(=O)O)c3ccccc3c2=O)c1	9.1	5.0	?	4.5%[15.4 µM]	8.3	-5.4%	.
44	O=C(NCc1nnc(SCC(=O)N2CCCc3ccccc32)o1)c1ccccc1F	5.3	26.6	-1.3%	-10.3%	-5.0	5.4%	-1.2%
45	CC(C)(C)OC(=O)[C@H](Cc1ccccc1)NC(=O)c1ncn2c1c(=O)[nH]c1ccc(Br)cc12	.	.	.	?	2.1	.	7.94µM*
46	CN(C)c1ccc(C(CNS(=O)(=O)c2ccc(F)cc2)c2c[nH]c3ccccc23)cc1 (stereo unspecified)	1.1	7.4	0.8%	9.0%	15.8	11.8%	-4.2%
47	CC(C)(C)C(=O)NC1CC2CCCC(C1)N2C(=O)Nc1ccccc1F (stereo unspecified)	3.0	-5.8	8.3%	-2.2%[15.4 µM]	18.5	15.8%	0.4%
48	COc1cc(NS(=O)(=O)c2ccc(OC)c(OC)c2)cc(OC)c1	-0.1	-2.9	8.2%	8.1%	-1.6	5.1%	-1.9%
49	[O-][n+]1onc2c1CCc1[nH]c(-c3ccccc3)nc1-2	-3.3	-6.1	1.5%	19.2%[15.4 µM]	-10.8	6.3%	28.2µM*
50	Cn1nc(C(F)(F)F)c(-c2ccc(F)cc2)c1NC(=O)c1ccco1	9.3	7.9	10.0%	-19.3%	-3.3	21.2%	.
51	c1ccc(-c2cc(N3CCCCC3)nc(-c3ccccc3)n2)cc1	-1.4	-23.1	-5.6%	0.7%	-0.1	-0.4%	-16.0%
52	CCCCOc1ccc(C(=O)N/C(=C/C=C/c2ccccc2)C(=O)NCCO)cc1	3.0	-11.3	3.5%	-11.7%	-4.0	-3.6%	.
